MgrA DNA FP: S. aureus MgrA-DNA binding modulation; fluorescence polarization; inhibition, %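 (about 10 µg/mL by stock and volumes)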; hit rate 0.13% among 84,000; AID 602314;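 active means above 50% in either of two replicates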;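 further: 0% = protein plus DNA without compound and 100% = DNA alone without protein; higher means less MgrA bound to DNA so lower polarization; one replicate is shown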
Sa helicase inh: blocks Staphylococcus aureus DNA helicase; inhibition, %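 (tested at about 80 µM)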; hit rate 0.05% among 120,000; purified S. aureus helicase, fluorescence unwinding assay; about half of the hits fall short of the stated cut; AID 485395;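 active means both duplicates at 50% or more, or one of them with a favoured structure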;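 further: 0% = mean of negative control wells and 100% = mean of positive control wells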
* hit, by the source's call; x = no result given. This is a subset. The share of hits here may be higher or lower than overall.

| Structure | MgrA DNA FP | Sa helicase inh |
| --- | --- | --- |
| O=C(c1cc2ccccc2c(=O)o1)N1CCCCCC1 | -2.2 | 19 |
| Cc1csc(=NC2CCCCC2)n1/N=C/c1ccc(O)c(O)c1O | x | 13 |
| CCNCC(=O)Nc1cc(C(F)(F)F)ccc1OCCOC | x | 7 |
| Clc1ccc2nc(-c3ccco3)cc(-c3ccccc3)c2c1 | 1.8 | 9 |
| CC(C)C(NC(=O)c1ccccc1)C(=O)OCc1cc(=O)n2ccsc2n1 (stereo unspecified) | x | 7 |
| Cc1ccc(C2=NNC3(CCOC(C)(C)C3)S2)cc1 (stereo unspecified) | 7.3 | -4 |
| CN(CC(=O)N1CCn2c1nc1ccccc12)S(=O)(=O)c1ccc2c(c1)CCC(=O)N2 | x | 15 |
| CC(=O)Nc1cc(C(=O)NCc2ccccc2)ccc1Sc1ccc(Cl)cc1 | -0.8 | 5 |
| O=C(c1cc2ccccc2oc1=O)N1CCSC1c1ccc(Br)cc1 (stereo unspecified) | 0.3 | x |
| CCN(C(=O)c1ccc(OC)cc1)c1ccccc1OC | 0.7 | 14 |
| Cc1cc(C(=O)CSc2nnc(N)s2)c(C)n1-c1c(C)n(C)n(-c2ccccc2)c1=O | x | -5 |
| Cc1csc(-c2cn(C(C)C)c(=O)n(Cc3ccccc3)c2=O)n1 | -2.9 | x |
| O=C(Oc1c(-c2ccccc2)c(=O)n2c3c(cccc13)CC2)c1ccco1 | x | 21 |
| O=C(Nc1ccc(Cl)cc1Cl)c1cnccc1C(F)(F)F | -3.2 | x |
| CC(=O)Nc1cc2c(C)cc(=O)oc2c2c1OCC2=O | 3.7 | 18 |
| COc1ccc(S(=O)(=O)N2CCCC(C(=O)NC3CC3)C2)cc1OC (stereo unspecified) | -5.3 | -1 |
| O=C1/C(=C/c2ccc(-c3ccc(Br)cc3)o2)Sc2ccccc21 | -0.9 | x |
| CCSc1nnc2c(n1)OC(C1CC=C(C)CC1)Nc1ccccc1-2 (stereo unspecified) | -1.0 | x |
| O=C(Nc1ccc(Cl)cc1)c1cccs1 | -1.0 | x |
| Cc1nc2ccc(S(=O)(=O)NC(C(=O)Nc3nc4ccc(Cl)cc4s3)C(C)C)cc2s1 (stereo unspecified) | -2.2 | 11 |
| CCOC(=O)c1c(C)n(-c2ccccc2)c2c1cc(OC(=O)C1CCCCC1)c1ccccc12 | 1.0 | x |
| O=C1CC(=O)CC(c2ccc3c(c2)OCO3)C1 | -3.0 | x |
| CCCCn1nnc2c(=O)oc3ccccc3c21 | 2.0 | 8 |
| Cc1ccc(C(=O)Nc2ccc(CN3CCS(=O)(=O)CC3)cc2)cc1C | -0.6 | x |
| CC(C)N(CCC#N)C(=O)Nc1ccccc1 | -1.2 | x |
| O=S(=O)(Nc1cccc(-c2nnco2)c1)c1cc(C(F)(F)F)cc(C(F)(F)F)c1 | -0.3 | x |
| CCCC(=O)N=c1sc2c(OC)ccc(OC)c2n1C | x | 7 |
| CN(C)/C=C(\C#N)C(=O)N=C1CCCN1C | x | 19 |
| CCc1cccc2c(C#N)cn(CC(=O)NCc3ccco3)c12 | -1.1 | 3 |
| c1ccc(Oc2ccc(-c3cc(N4CCOCC4)n[nH]3)cc2)cc1 | 1.7 | x |
| CN(C)/C=N/NC(=O)Cc1csc2nc(-c3ccccc3)nn12 | x | 10 |
| CCOc1ccc(CCNC(=O)c2ccc3c(=O)n4c(nc3c2)CCCCC4)cc1 | 3.9 | 14 |
| O=C(NCc1ccccn1)C1CCN(C(=O)c2cnn(-c3ccccc3)c2-n2cccc2)CC1 | x | -11 |
| COc1ccc(Cl)cc1S(=O)(=O)n1ccnc1C(C)C | x | 20 |
| Cc1c(OCc2ccccc2)cccc1[N+](=O)[O-] | -1.0 | x |
| CSc1nc2ccc(S(=O)(=O)N3CCCCC3)cc2s1 | 1.2 | -1 |
| CCCc1cnc(N2CCN(C(=S)NC)CC2)nc1 | 0.6 | x |
| COc1ccc(-c2cc(C(F)(F)F)n3nc(N)nc3n2)cc1 | -1.9 | 4 |
| Cc1ccc(-c2csc(=Nc3cccnc3)n2CCCN2CCCC2=O)cc1C | x | 0 |
| O=C1Nc2ccccc2/C1=C\c1ccco1 | 1.5 | x |

A draw from above in order of formula weight, highest first:
| Structure | MgrA DNA FP | Sa helicase inh |
| --- | --- | --- |
| O=C(NCc1ccccn1)C1CCN(C(=O)c2cnn(-c3ccccc3)c2-n2cccc2)CC1 | x | -11 |
| CCCc1cnc(N2CCN(C(=S)NC)CC2)nc1 | 0.6 | x |
| Cc1c(OCc2ccccc2)cccc1[N+](=O)[O-] | -1.0 | x |

(next part)
| Structure | MgrA DNA FP | Sa helicase inh |
| --- | --- | --- |
| COc1cccc(NCc2ccc(OC)c(Cn3ccnc3)c2)c1 | x | 0 |
| Cc1nn(-c2ccccc2)c(Cl)c1CN1CCN(Cc2ccc3c(c2)OCO3)CC1 | x | 11 |
| O=C(NCC1CCCCC1)c1ccc(=O)n(Cc2ccccc2)n1 | x | 4 |
| C(=NCCN=Cc1ccc2c(c1)OCO2)c1ccc2c(c1)OCO2 | -2.7 | x |
| CC(C)(C)C(=O)OCC(=O)Nc1ccccc1 | 0.3 | -15 |
| Fc1ccc(Oc2ncccn2)c(Cl)c1 | x | 5 |
| CCOC(=O)c1[nH]c(C)c(/C(C)=N/O)c1C | -2.8 | x |
| Cc1c(C(=O)NN)nn(-c2ccc(C(C)(C)C)cc2)c(=O)c1C#N | x | -7 |
| Cc1ccc(OC(=O)c2ccc(C(F)(F)F)cc2)c(NC(=O)c2ccc(C(F)(F)F)cc2)c1 | -0.3 | x |
| CCSc1nnc(-c2cccc(S(=O)(=O)N(CC)CC)c2)n1N | x | 10 |
| O=C(Nc1ccc(Cl)c(Cl)c1)C1C2CC/C=C\CCC21 (stereo unspecified) | -1.6 | 8 |
| CC(NC(=O)c1ccccc1)c1cccs1 (stereo unspecified) | -1.8 | 9 |
| Brc1[nH]nc2ccccc12 | x | -10 |
| CC1(C)C=C(c2ccc(C3=CC(C)(C)NC(C)(C)C3)s2)CC(C)(C)N1 | 0.5 | 15 |
| CCOC(=O)c1sc(N)c(C#N)c1COC(=O)c1c(C)nn(-c2ccccc2)c1Cl | x | -130 |
| N#C/C(=C\c1ccccc1)C(=O)N1CCCC1 | x | 10 |
| COc1cccc(CNc2nc3ccc(C)cc3n3cnnc23)c1 | x | 2 |
| O=C(CSc1nc(C(F)(F)F)cc(=O)[nH]1)c1ccc(Cl)cc1 | 0.2 | x |
| CC(C)COc1ccc(/C(=N\O)c2ccccc2)cc1 | -0.6 | x |
| O=C1CSC(c2ccco2)N1Cc1ccccc1 (stereo unspecified) | x | 6 |
| Nc1ccccc1Nc1c([N+](=O)[O-])cc(C(F)(F)F)cc1[N+](=O)[O-] | 0.2 | x |
| CCC(=O)c1ccccc1OCCCSc1ncccn1 | 0.4 | 17 |
| CN1CCc2nc(SCc3cccc(C(F)(F)F)c3)c(C#N)cc2C1 | 0.0 | -7 |
| CCCn1c2ccccc2c2nnc(SCC(=O)NCc3ccc4c(c3)OCO4)nc21 | 1.4 | -2 |
| CCOP(C)(=O)C1(C#N)CC1 (stereo unspecified) | 3.7 | 14 |
| COc1cc(/C=C2\SC(=S)N(CC(=O)Nc3nc4ccccc4s3)C2=O)cc(OC)c1OC | -0.2 | x |
| CCN(CC)S(=O)(=O)c1ccc(/C=C/C(=O)Nc2ccccc2C)cc1 | -3.0 | -6 |
| CCCCNC(=O)CC1N=C2c3ccccc3N=C(SCC(=O)Nc3ccccc3OC)N2C1=O (stereo unspecified) | x | 8 |
| O=C(O)c1ccc(CSC2CCCCC2)cc1 | -0.3 | 12 |
| COC(=O)c1ccc(Oc2ncnc3sc4c(c23)CCCC4)cc1 | x | 12 |

Part of the list above, with values ahead of the structure.
| MgrA DNA FP | Sa helicase inh | Structure |
| --- | --- | --- |
| 0.2 | x | Nc1ccccc1Nc1c([N+](=O)[O-])cc(C(F)(F)F)cc1[N+](=O)[O-] |
| -0.2 | x | COc1cc(/C=C2\SC(=S)N(CC(=O)Nc3nc4ccccc4s3)C2=O)cc(OC)c1OC |
| 3.7 | 14 | CCOP(C)(=O)C1(C#N)CC1 (stereo unspecified) |

The list goes on:
| Structure | MgrA DNA FP | Sa helicase inh |
| --- | --- | --- |
| NNC(=O)CSc1nc(-c2ccccc2)nc2c1CCCC2 | -0.4 | 5 |
| C=CCN=C(Cc1ccccc1)C1=C(O)CC(C)(C)CC1=O | 0.3 | -2 |
| Cc1ccc(-c2csc(-c3ccncc3)n2)c(C)c1 | 0.2 | x |
| O=C(CONC(=O)C12CC3CC(CC(C3)C1)C2)N1CCc2ccccc21 | x | 3 |
| CCC(=O)Nc1ccc2oc(-c3ccccc3Br)nc2c1 | x | 2 |
| CCOC(=O)c1ccc(-n2ccnc2)c(NC(=O)c2ccccc2)c1 | -2.1 | 12 |
| Cc1ccc(OCC(O)CN2C(=O)NC(C)(C)C2=O)cc1 (stereo unspecified) | 2.4 | -1 |
| Cc1cc(Cl)cc(Br)c1OCC(O)CN1CCN(c2ccc(C(F)(F)F)cn2)CC1 (stereo unspecified) | -1.9 | x |
| Cc1ccc2c(CN3c4ccccc4CC3C)cc(=O)oc2c1 (stereo unspecified) | x | 0 |
| COC(=O)c1cc(COC(=O)c2ccc3[nH]c4c(c3c2)CCCC4)oc1C | x | -5 |
| O=C(NCC(c1ccco1)N1CCCCC1)c1cccs1 (stereo unspecified) | x | -10 |
| c1ccc(-c2nc3nc4ccccc4n3[nH]2)cc1 | x | 8 |
| CC(O)c1ccc(F)cc1 (stereo unspecified) | x | -15 |
| O=C(C1CCN(c2ccc(N3CCOCC3)nn2)CC1)N1CCN(c2ccccc2)CC1 | x | 12 |
| CCC1S/C(=N\S(=O)(=O)c2ccccc2)N(c2ccccc2)C1=O (stereo unspecified) | x | -18 |
| O=C(Nc1ccc(Br)cc1)C12CC3CC(CC(C3)C1)C2 | -0.6 | -11 |
| O=C1CCCN1CCc1ccccn1 | 0.4 | 9 |
| Cc1nn2c(CN(C(=O)c3ccccc3)c3ccccc3)nnc2c2ccccc12 | -2.1 | 2 |
| CCCC(O)(CCC)C(=O)NN1CCCCC1 | -1.1 | 6 |
| CC(=O)c1c(-c2ccccc2)c2cc(Cl)ccc2[nH]c1=O | 0.1 | x |
| O=C(c1cnn(-c2ccccc2)c1-n1cccc1)N1CCC(C(=O)N2CCc3ccccc32)CC1 | x | -6 |
| CCCn1c(=O)c(C(=O)Nc2nccs2)c(O)c2ccccc21 | -1.8 | 1 |
| CC(C(=O)Nc1ccc(Cl)cc1)N(C)Cc1cccs1 (stereo unspecified) | x | 21 |
| c1ccc(N=C2CCCC2)nc1 | -0.6 | 3 |
| COC(=O)c1ccc2ccn(CC(N)=O)c2c1 | 2.1 | -11 |
| NNC(=O)Nc1ccccc1 | x | -15 |
| Cc1c(C(=O)Nc2ccccc2Br)oc2ccccc12 | 1.3 | 5 |
| COc1cnc(-c2ccccc2)nc1Sc1ccccc1 | 1.4 | x |
| O=C(O)c1cc(=O)c2cccc(O)c2[nH]1 | 0.9 | x |
| Cc1cc2cc(CNC(=O)c3cc4ccccc4o3)ccc2[nH]1 | x | 2 |
| CCOC(=O)c1c(N)sc(C(=O)NC)c1COC(=O)/C=C/c1cccs1 | x | 3 |
| CCOc1ccccc1NC(=O)Cn1c(CC)nc2ccccc21 | -2.5 | -4 |
| CC(=O)N=Nc1c(O)[nH]c2ccc(F)cc12 | x | -7 |
| O=C1NC(=S)N/C1=C/c1ccc(-c2ccc([N+](=O)[O-])cc2Br)o1 | -1.8 | x |
| OCCNc1ccc(C(F)(F)F)cn1 | -2.7 | 6 |
| NC(=O)c1c(NC(=O)CN(C(=O)c2cccs2)C2CCCC2)sc2c1CCCC2 | -1.1 | 9 |
| CCOC(=O)C1=C(CNc2ccc(C)cc2)NC(=O)NC1c1ccccc1 (stereo unspecified) | x | -13 |
| Cc1cc(C)n(-c2nncn2N)n1 | x | -3 |
| CCOc1ccccc1Nc1nnc(SCCC#N)s1 | x | -13 |
| CC(C)C(C)(C#N)NC(=O)CSc1nnc(-c2cccs2)n1N (stereo unspecified) | x | -14 |
| Cc1ccc(S(=O)(=O)N(Cc2nccn2C)C(C)C)cc1 | x | 2 |
| CC(C)C(NC(=O)COc1ccc(Br)cc1)C(=O)O (stereo unspecified) | x | 5 |
| c1ccc(Oc2ccc(-n3cnnn3)cc2)cc1 | 0.2 | -4 |
| COc1ccc(-c2noc(CN(C(=O)Nc3ccc(C)cc3)C(C)C)n2)cc1 | x | 18 |
| CC12CCCCC1C1(C=CC(=O)C=C1)C(c1ccccc1)=N2 (stereo unspecified) | -0.8 | 20 |
| O=S(=O)(c1ccc2oc(-c3cccnc3)nc2c1)c1ccc2oc(-c3cccnc3)nc2c1 | 0.7 | 8 |
| CCN(CC)Cc1c(C)c(C)c(C)c(C)c1C | 1.5 | x |
| CCCNC(=O)NC1CCN(c2nc3ccccc3s2)CC1 | x | -19 |
| CCOc1ccc(CCNC(=O)c2coc(=O)c3ccccc23)cc1OCC | x | 12 |
| Cc1cc(C)c2c(N=CN(C)C)c(C(=O)N3CCN(c4ncccn4)CC3)sc2n1 | x | -33 |

(cont.)
| Structure | MgrA DNA FP | Sa helicase inh |
| --- | --- | --- |
| Cc1ccc(Sc2cnc3ccccc3n2)cc1 | 1.9 | x |
| Cc1ccc(S(=O)(=O)NCCN2CCN(S(=O)(=O)c3ccc(C)c(C)c3C)CC2)c(C)c1C | 0.1 | 4 |
| S=C(Nc1ccccn1)c1ccccc1 | -0.2 | 13 |
| CN(C(=O)c1c[nH]c2ccc(S(=O)(=O)N3CCC4(CC3)OCCO4)cc2c1=O)C1CCCCC1 | 0.8 | -1 |
| Cc1cccc(C)c1-n1nnnc1SCc1cc(Cl)c2c(c1)OCCO2 | x | 12 |
| COC(=O)CNC(=O)C1CC1 | x | -6 |
| CNC(=O)CCCc1nc(-c2ccc(OC)cc2)no1 | x | -21 |
| O=C(NNC(=O)c1cccnc1Oc1ccccc1)c1cccnc1Oc1ccccc1 | 3.6 | x |
| NC(=O)c1cccnc1Oc1ccc(Cl)cc1 | 2.3 | x |
| CN(C(=O)CSc1nc2ccccc2o1)C1CCCCC1 | x | 10 |
| O=C(Nc1ccccc1Cl)c1ccc2c(c1)C(=O)N(Cc1ccco1)C2=O | 8.9 | 15 |
